Screening data: PubChem, National Center for Advancing Translational Sciences (NCATS)
PINK1 modulator: PINK1 expression modulation; PINK1 immunofluorescence, high-content cytometry, 24 h; Potency, µM (doses to about 76.6 µM), for inactives: at the highest dose activation (PINK1 increase), hits mostly activators; 0.2% of 410,000 active; active = well fitted activation curve with a large enough effect; inconclusive = small, poorly fitted or top-dose-only effect; inactive = flat fitted curve, though single readings scatter; cell line not stated here;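 also: potency is read from the fitted curve at half-maximal effect; % of control where 0% means no effect; nearly all actives have a fitted effect of over 65% in size; a mitochondrial uncoupler was the plate control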
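PINK1 protein level read as immunofluorescence by microplate cytometer in a fixed, stained stable cell line after 24 h exposure to five compound concentrations, with CCCP as control.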
TRPML1 blocker: blocks the human TRPML1 channel. Q9GZU1. TRPML1-inducible cells, Ca2+ dye fluorescence, FDSS; hits give low values; inhibition of EC80 agonist-evoked calcium signal. activity change, negative = inhibition, % (test concentration not listed). 0.02% of 390,000 active. AID 624415; in the data active means activity change below about -50%; inconclusive means about -30% to -50%; inactive means above about -30%;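 also: stimulus is agonist 54-4 at its EC80 concentration; % is scaled to controls: 0 for no effect and ±100 for the full control effect; compound concentration not given in the record; the text of the record puts the active cut at -80%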
Target sequence (Q9GZU1 whole entry, looked up): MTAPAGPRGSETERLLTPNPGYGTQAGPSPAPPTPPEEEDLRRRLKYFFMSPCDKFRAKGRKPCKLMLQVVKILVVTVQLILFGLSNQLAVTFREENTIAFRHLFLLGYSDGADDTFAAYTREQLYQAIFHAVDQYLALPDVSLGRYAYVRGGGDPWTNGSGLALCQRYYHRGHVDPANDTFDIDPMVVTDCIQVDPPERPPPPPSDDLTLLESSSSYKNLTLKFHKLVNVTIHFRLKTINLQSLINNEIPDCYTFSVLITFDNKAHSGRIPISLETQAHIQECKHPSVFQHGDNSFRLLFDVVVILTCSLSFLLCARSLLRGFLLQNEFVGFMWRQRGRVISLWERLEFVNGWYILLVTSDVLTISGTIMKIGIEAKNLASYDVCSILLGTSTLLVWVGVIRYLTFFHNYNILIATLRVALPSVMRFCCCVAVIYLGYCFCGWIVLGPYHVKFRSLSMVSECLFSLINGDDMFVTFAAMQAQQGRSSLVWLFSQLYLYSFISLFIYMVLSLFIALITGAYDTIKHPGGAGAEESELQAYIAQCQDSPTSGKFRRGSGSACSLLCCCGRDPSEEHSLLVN
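Calcium fluorescence in TRPML1-DL cells induced overnight with Tet: a 110 s read after compound pin addition, then a 110 s antagonist read after challenge with 54-4 at 4 uM final (EC80).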
D2 agonist: agonists of human D2 dopamine receptor (beta-arrestin) | P14416 | AID 624465 | 0.084% of 360,000 active | activation, % (no concentration beside the values) | DiscoveRx PathHunter D2 beta-arrestin, luminescence, 90 min; 100% = 57 uM dopamine signal; in the data active = activation above about 40%; inconclusive = about 15% to 40%; inactive = below about 15%; also: compound concentration not given in the record; the text of the record calls up to 30% inactive
Target sequence (P14416 whole entry, looked up): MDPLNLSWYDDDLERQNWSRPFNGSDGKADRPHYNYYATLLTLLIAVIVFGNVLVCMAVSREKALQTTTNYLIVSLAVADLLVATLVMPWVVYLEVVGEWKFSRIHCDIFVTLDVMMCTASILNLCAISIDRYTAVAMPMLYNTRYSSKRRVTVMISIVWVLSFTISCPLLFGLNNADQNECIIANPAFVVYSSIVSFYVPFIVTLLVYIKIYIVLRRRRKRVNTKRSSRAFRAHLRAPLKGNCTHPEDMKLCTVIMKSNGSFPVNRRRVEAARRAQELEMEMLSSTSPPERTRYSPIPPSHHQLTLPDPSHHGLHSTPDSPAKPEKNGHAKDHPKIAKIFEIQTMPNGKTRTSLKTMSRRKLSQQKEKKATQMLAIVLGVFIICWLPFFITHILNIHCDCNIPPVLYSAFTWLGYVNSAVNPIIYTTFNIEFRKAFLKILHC
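Agonist mode: compounds alone added to overnight-plated D2 PathHunter cells for 90 min at 37 C, with 57 uM final dopamine (EC100) defining full response. Beta-arrestin recruitment detected by chemiluminescent reagent, read after 1 h at ambient temperature.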
D2 PAM: potentiates the human D2 dopamine receptor allosterically. DiscoveRx D2 beta-arrestin cells, luminescence, 90 min; 100% = 57 uM dopamine signal. potentiation, % (concentration not given with the values). 0.23% of 360,000 active. AID 624464; active = potentiation of 50% or more; inconclusive = 30% to 50%; inactive = 30% or less;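 also: compound concentration not given in the record; tested on top of an EC20 dose of dopamine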
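D2 cells co-treated with compound plus 50 nM dopamine (EC20) for 90 min at 37 deg C to detect potentiation. Beta-arrestin recruitment was read as enzyme-fragment luminescence after 1 h at ambient temperature. Full response was set by 57 uM dopamine.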
Six1-Eya2 blk: blocks human Six1 binding to Eya2; Q15475+O00167; AlphaScreen GST-Six1/His-Eya2 binding, biochemical; hits give low values; control for the full effect not named in the record; activity change, % (concentration not given with the values); 0.56% of 360,000 active; in the data active = activity change below about -65%; inconclusive = about -30% to -65%; inactive = above about -30%; also: % is scaled to controls: 0 for no effect and ±100 for the full control effect
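AlphaScreen luminescence read after one hour at 37 °C in darkness. Pin-transferred compounds met GST-Six1 and His-Eya2 protein (5X stock 250 nM/500 nM) plus glutathione donor and Ni-chelate acceptor beads (5X, 50 ug/mL).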
TRPML1 ag: human mucolipin-1 channel agonism; TRPML1-expressing cells, Ca2+ dye fluorescence, FDSS; host cell line not named in the record; reference of the full effect not given here; activation, % (concentration not given with the values); 0.12% of 410,000 active; in the data active = activation above about 50%; inconclusive = about 30% to 50%; inactive = below about 30%; also: 0% is about no effect; the text of the record puts the active cut at 80%
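Calcium fluorescence on an FDSS kinetic reader gave the read-out. Tet-induced TRPML1-DL cells were plated overnight, dye-loaded (Ca8 with quencher, 45-90 min, room temperature, dark), then read 110 s after compound addition, and again 110 s after 4uM final 54-4 (EC80).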
* = called active by the depositor; [ ] = dose if it differs, or a comment.

How did O=C(NCCN1CCOCC1)c1ccc(=O)n(Cc2ccc(Cl)cc2)c1 do in these assays?
PINK1 modulator: 2.2%; TRPML1 blocker: -6; D2 agonist: 0.9; D2 PAM: -2; Six1-Eya2 blk: 5; TRPML1 ag: -0.4

How did Cc1cccc(NC(=O)CSc2ncc3c(n2)-c2cc(Cl)ccc2N(C)S3(=O)=O)c1C do in these assays?
PINK1 modulator: 0.9%; TRPML1 blocker: -3; TRPML1 ag: 1.1

What do the screens show for `COc1cccc(OCCNc2cc(Cl)ccc2[N+](=O)[O-])c1`?
PINK1 modulator: 3.6%[38.3 µM]; TRPML1 blocker: -2; D2 agonist: -2.5; D2 PAM: -4; Six1-Eya2 blk: inconclusive; TRPML1 ag: -0.1

What do the screens show for `CC1(C(=O)O)CCC(C(=O)Nc2ccc(F)cc2)C1(C)C` (stereo not given)?
PINK1 modulator: 0.5%; TRPML1 blocker: -3; D2 agonist: 2.6; D2 PAM: 1; Six1-Eya2 blk: 1; TRPML1 ag: -1.5

How did NC(=S)Nc1cccc(-c2n[nH]c(=S)o2)c1 do in these assays?
PINK1 modulator: 3.0%; TRPML1 blocker: 9; D2 agonist: -9.6; D2 PAM: -14; Six1-Eya2 blk: 25; TRPML1 ag: 0.2

Results for CC(=O)C(/C=N/c1ncc(C(F)(F)F)cc1Cl)=C(\C)O ?
PINK1 modulator: -0.6%; TRPML1 blocker: 10; D2 agonist: -15; D2 PAM: -5; Six1-Eya2 blk: 1; TRPML1 ag: 1.5

What do the screens show for `CC1CN(Cc2cc(=O)[nH]c(C3CC3)n2)CC(C)O1` (stereo not given)?
PINK1 modulator: -2.2%; TRPML1 blocker: 25; D2 agonist: -1.2; D2 PAM: -6; Six1-Eya2 blk: 1; TRPML1 ag: -0.7

What do the screens show for `CCc1cccc(C)c1NC(=O)COC(=O)CC1CCCC1`?
PINK1 modulator: 0.2%; TRPML1 blocker: 6; D2 agonist: -2.2; D2 PAM: -21; Six1-Eya2 blk: 43; TRPML1 ag: 0.2

What do the screens show for `O=C(/C=C/c1cc2c(cc1Br)OCO2)NCc1ccc(F)cc1`?
PINK1 modulator: 13%; TRPML1 blocker: 35; D2 agonist: -1.7; D2 PAM: -26; Six1-Eya2 blk: -1; TRPML1 ag: 0.2

What do the screens show for `Cc1cc(C)n(-c2cc(N3CCN(S(=O)(=O)c4ccc(C)c(C)c4)CC3)ccc2[N+](=O)[O-])n1`?
PINK1 modulator: 0.5%; TRPML1 blocker: 49; D2 agonist: 0.7; D2 PAM: -10; Six1-Eya2 blk: -2; TRPML1 ag: 0.9

What do the screens show for `Cn1cccc1/C=N/n1c(-c2ccccc2)n[nH]c1=S`?
PINK1 modulator: -0.7%; TRPML1 blocker: 0; D2 agonist: -2.2; D2 PAM: 6; Six1-Eya2 blk: -13; TRPML1 ag: 1.8

How did CC(C)(C)c1nnc(NS(C)(=O)=O)s1 do in these assays?
TRPML1 blocker: 4; D2 agonist: -3.7; D2 PAM: 27; Six1-Eya2 blk: -2; TRPML1 ag: 0.3

What do the screens show for `COC(=O)[C@@]12CCCN1[C@H](c1ccc(-c3ccc4c(c3)OCO4)c(OC)c1)[C@H]1C(=O)N(C)C(=O)[C@H]12`?
PINK1 modulator: -0.3%; TRPML1 blocker: -10; D2 agonist: -1.9; D2 PAM: -1; Six1-Eya2 blk: -4; TRPML1 ag: -0.6

Results for CC(SCc1ccccc1)C(=O)Nc1ccc(F)cc1 (stereo not given) ?
PINK1 modulator: 1.9%; TRPML1 blocker: -10; D2 agonist: -2.7; D2 PAM: -16; Six1-Eya2 blk: 1; TRPML1 ag: 0.8

What do the screens show for `O=c1c(-c2ccccc2)cnc2n1CCS2`?
PINK1 modulator: 1.3%; TRPML1 blocker: -2; D2 agonist: -0.2; D2 PAM: 7; Six1-Eya2 blk: 5; TRPML1 ag: 0.4

Results for CC(=O)c1cc(C#N)c(Oc2cccc(C(F)(F)F)c2)nc1C ?
PINK1 modulator: 1.4%; TRPML1 blocker: 12; D2 agonist: -1.2; D2 PAM: -7; Six1-Eya2 blk: 20; TRPML1 ag: 3.5

How did N#CCCn1cc(C(=O)O)c(-c2cccs2)n1 do in these assays?
PINK1 modulator: -1.2%; TRPML1 blocker: 7; D2 agonist: -3.3; D2 PAM: -40; Six1-Eya2 blk: 7; TRPML1 ag: 1.5

What do the screens show for `COc1ccc(C(=O)Nc2ccc(-c3nc4ncccc4o3)cc2)cc1`?
PINK1 modulator: 8.3%; TRPML1 blocker: 19; TRPML1 ag: -0.6

Results for CCCCNC(=O)/C(C#N)=C/c1ccc(C(=O)OC)cc1 ?
PINK1 modulator: 0.4%; TRPML1 blocker: 28; D2 agonist: -3.5; D2 PAM: 2; Six1-Eya2 blk: 3; TRPML1 ag: -0.5

Results for C[C@H](CO)N1C[C@H](C)[C@H](CN(C)C(=O)c2ccc(N3CCN(C)CC3)cc2)OCc2cnnn2CCCC1=O ?
PINK1 modulator: 0.4%; TRPML1 blocker: -11; D2 agonist: -5.6; D2 PAM: 5; Six1-Eya2 blk: 9; TRPML1 ag: -0.5

What do the screens show for `COC(=O)[C@H]1C[C@@H]1[C@H](NC(=O)c1cc(C)on1)c1ccccc1`?
PINK1 modulator: 0.4%; TRPML1 blocker: -16; D2 agonist: -2.3; D2 PAM: -4; Six1-Eya2 blk: 10; TRPML1 ag: 0.8

What do the screens show for `CCCCn1c(N)c(N(CC(C)C)C(=O)CC(NC(=O)c2ccccc2Cl)c2ccccc2)c(=O)[nH]c1=O` (stereo not given)?
PINK1 modulator: -1.1%; TRPML1 blocker: -18; D2 agonist: -1.4; D2 PAM: -18; Six1-Eya2 blk: 12; TRPML1 ag: -0.5

Results for CC(C(=O)N1CCOCC1)(c1ccccc1)c1ccccc1 ?
PINK1 modulator: 1.5%[38.3 µM]; TRPML1 blocker: -10; D2 agonist: 0.9; D2 PAM: -5; Six1-Eya2 blk: 0; TRPML1 ag: -0.1

Results for COc1ccc(CCNC(=O)c2ccc3c(c2)CCN3S(C)(=O)=O)cc1 ?
PINK1 modulator: 4.8%; TRPML1 blocker: -2; TRPML1 ag: -0.6

Results for COCCNc1nc2cc(-c3ccccc3C)sc2c(=O)n1C ?
PINK1 modulator: 8.2%; D2 agonist: -5.7; D2 PAM: -12; Six1-Eya2 blk: -4; TRPML1 ag: -0.9

Results for C=CCNC(=O)CN1CCC(O)(c2ccc(F)cc2)CC1 ?
TRPML1 blocker: 28; D2 agonist: 2.2; D2 PAM: -15; Six1-Eya2 blk: 2; TRPML1 ag: 0.1

Results for C=CCn1c(C)nc2c(cnn2-c2ccccc2)c1=O ?
PINK1 modulator: -0.9%; TRPML1 blocker: 77; D2 agonist: 5.8; D2 PAM: 2; Six1-Eya2 blk: 4; TRPML1 ag: -0.3

What do the screens show for `CC(C)CCN1CCC(CN2C(=O)C(=O)NC[C@@H]2Cc2ccccc2)CC1`?
PINK1 modulator: 1.2%; TRPML1 blocker: -5; D2 agonist: -4.1; D2 PAM: -7; Six1-Eya2 blk: 4; TRPML1 ag: -0.4

How did CC1=C(C(=O)Nc2ccc(C(=O)NCCC(C)C)cc2)SCCO1 do in these assays?
PINK1 modulator: 2.0%; TRPML1 blocker: 5; D2 agonist: 3.5; D2 PAM: 4; Six1-Eya2 blk: -1; TRPML1 ag: 0.3

What do the screens show for `COCCN(C(=O)COC(=O)CSc1ccccc1)c1c(N)n(Cc2ccccc2)c(=O)[nH]c1=O`?
PINK1 modulator: -4.2%; TRPML1 blocker: 6; D2 agonist: -1.1; D2 PAM: -19; Six1-Eya2 blk: 6; TRPML1 ag: 1.7

What do the screens show for `O=C(Nc1ccc(Cl)cc1Cl)c1cc(S(=O)(=O)N2CCCCCC2)ccc1F`?
PINK1 modulator: 1.4%; TRPML1 blocker: 74; TRPML1 ag: 1.0

Results for O=C(CSc1nc(-c2ccccc2)nn1C(=O)c1ccccc1)Nc1cccc([N+](=O)[O-])c1 ?
PINK1 modulator: -1.9%; TRPML1 blocker: 4; D2 agonist: -1.7; D2 PAM: -5; Six1-Eya2 blk: -13; TRPML1 ag: 0.8

Results for CN(C)NC(=S)Nc1ccc2nc(-c3ccccn3)c(-c3ccccn3)nc2c1 ?
PINK1 modulator: 0.7%; TRPML1 blocker: -6; D2 agonist: 0.1; D2 PAM: -1; Six1-Eya2 blk: -11; TRPML1 ag: 1.4

What do the screens show for `COc1ccc(Nc2ccc(Cl)nn2)cc1`?
PINK1 modulator: 0.8%; TRPML1 blocker: -4; D2 agonist: -0.7; D2 PAM: -3; Six1-Eya2 blk: 1; TRPML1 ag: -0.9

How did Clc1cc(NCc2cccs2)ccc1N1CCOCC1 do in these assays?
PINK1 modulator: -0.6%; TRPML1 blocker: 5; D2 agonist: 1.5; D2 PAM: 28; Six1-Eya2 blk: -20; TRPML1 ag: 0.6

Results for COc1ccc(Cc2nc3ccccc3n2Cc2ccccc2C)cc1 ?
PINK1 modulator: 5.3%; TRPML1 blocker: 15; TRPML1 ag: 0.2

How did COc1ccc(N(CC(=O)Nc2ccc(S(=O)(=O)N3CCCCC3)cc2)S(C)(=O)=O)cc1OC do in these assays?
PINK1 modulator: 2.2%; TRPML1 blocker: -2; D2 agonist: -1.8; D2 PAM: 6; Six1-Eya2 blk: -4; TRPML1 ag: 0.0

What do the screens show for `COc1ccccc1NC(=O)CCc1nnc2ccc(N3CCCCC3)nn12`?
PINK1 modulator: -1.4%; TRPML1 blocker: -7; D2 agonist: -3.0; D2 PAM: -3; Six1-Eya2 blk: 2; TRPML1 ag: -1.2

What do the screens show for `COc1ccc(Cl)cc1S(=O)(=O)N1CCCC(C(=O)N2CCOCC2)C1` (stereo not given)?
PINK1 modulator: 0.4%; TRPML1 blocker: -12; D2 agonist: -4.2; D2 PAM: -3; Six1-Eya2 blk: -2; TRPML1 ag: 0.2

What do the screens show for `COc1ccc(OC)c(NC(=O)Cn2cnc3c(cnn3-c3ccccc3)c2=O)c1`?
PINK1 modulator: 4.3%; TRPML1 blocker: 6; D2 agonist: 1.1; D2 PAM: -2; Six1-Eya2 blk: -12; TRPML1 ag: 0.0

Results for COc1ncnc2c1ncn2CCCNCCN1CCOCC1 ?
PINK1 modulator: 0.9%; TRPML1 blocker: -7; D2 agonist: 3.1; D2 PAM: 11; Six1-Eya2 blk: 9; TRPML1 ag: -0.8
